UUG fidelity: modulators of start codon recognition fidelity in yeast; S. cerevisiae UUG-firefly luciferase reporter, luminescence/redox ratio; activity score, % at 18.7 µM; 350,000 tested, 0.13% active; AID 602363;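 active = replicate mean at a twofold rise or more, about +100% in these data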;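 also: firefly luciferase made from a UUG start codon reports start codon fidelity; reporter light over untreated wells divided by growth signal over untreated wells; some hits fall short of that in this replicate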
Env fusion inh: HIV envelope-mediated fusion inhibition; 360,000 tested, 1.1% active; inhibition, % at 12.3 µM; HeLa-JRFL Env/CEM21 cell fusion, luciferase;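 active = mean replicate inhibition score of at least 50 and every replicate individually at or above 50; inconclusive = only one of the two criteria met; inactive = mean below 50 and not all replicates reaching 50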;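 also: 0% = plate neutral controls and 100% = maraviroc near 300 nM; one replicate is shown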
Starred values were filed as active, the others as inactive; ? = inconclusive; [ ] = dose if it differs, or a comment. An excerpt. The share of hits here may be higher or lower than overall.

| UUG fidelity | Env fusion inh | mol |
| --- | --- | --- |
| -2.6 | 5.1[16.7 µM] | O=C(C[C@@H]1CC[C@@H](NC(=O)Nc2ccccc2F)[C@H](CO)O1)NCc1ccccc1 |
| -8.3 | -8.2[16.7 µM] | O=C(C[C@@H]1C=C[C@H](NS(=O)(=O)c2ccccc2)[C@@H](CO)O1)NCCN1CCCCC1 |
| -2.6 | 3.5[16.7 µM] | CC(C)C#Cc1ccc2c(c1)O[C@H](CN(C)C(=O)c1cnccn1)[C@H](C)CN([C@H](C)CO)S2(=O)=O |
| -13.0 | -41.8[16.7 µM] | O=C(C[C@@H]1CC[C@H](NC(=O)Nc2cc(F)ccc2F)[C@@H](CO)O1)NCc1ccccn1 |
| -3.1 | 39.9[16.7 µM] | C[C@@H]1CN([C@@H](C)CO)C(=O)c2cc(NC(=O)Nc3ccccc3)ccc2O[C@@H](C)CCCCO[C@H]1CN(C)S(=O)(=O)c1ccc(Cl)cc1 |
| -5.9 | -3.1[16.7 µM] | C[C@@H]1CN([C@@H](C)CO)S(=O)(=O)c2ccc(C#Cc3ccncc3)cc2O[C@H]1CN(C)S(=O)(=O)c1ccc(F)cc1 |
| -9.5 | 9.7[16.7 µM] | C[C@H]1CCCCO[C@@H](CN(C)C(=O)NC2CCCCC2)[C@@H](C)CN([C@@H](C)CO)C(=O)c2cc(NS(C)(=O)=O)ccc2O1 |
| 13.3 | 13.3[16.7 µM] | C[C@H](CO)N1C[C@H](C)[C@@H](CN(C)C)OCCCC[C@H](C)Oc2ccc(NC(=O)Nc3ccccc3)cc2C1=O |
| 0.1 | ? | C[C@H]1CN([C@@H](C)CO)C(=O)c2cc(Br)cnc2O[C@@H]1CN(C)CC1CCCC1 |
| -11.7 | 3.8[16.7 µM] | CC(C)NC(=O)N(C)C[C@@H]1OCCCC[C@@H](C)Oc2ccc(NS(=O)(=O)c3ccccc3)cc2C(=O)N([C@@H](C)CO)C[C@H]1C |
| -10.5 | 8.7[16.7 µM] | O=C(C[C@@H]1C=C[C@@H](NC(=O)c2ccc(F)cc2)[C@@H](CO)O1)NCc1ccncn1 |
| 2.8 | 9.2[16.7 µM] | COc1ccccc1C#Cc1ccc([C@@H]2[C@@H](C#N)N(C(=O)C3CCC3)[C@@H]2CO)cc1 |
| 16.0 | -35.9[16.7 µM] | C[C@@H]1CCCCO[C@@H](CN(C)Cc2ccc3c(c2)OCO3)[C@@H](C)CN([C@@H](C)CO)C(=O)c2cc(NC(=O)NC3CCCCC3)ccc2O1 |
| 11.6 | 31.8[16.7 µM] | CCCC#Cc1cnc2c(c1)C(=O)N([C@H](C)CO)C[C@H](C)[C@H](CN(C)C(=O)Cc1ccccc1)O2 |
| 1.7 | -45.5[16.7 µM] | COc1ccc(S(=O)(=O)Nc2ccc3c(c2)C(=O)N([C@@H](C)CO)C[C@H](C)[C@@H](CN(C)C(=O)NC2CCCCC2)OCCCC[C@@H](C)O3)cc1 |
| 1.7 | 7.5[16.7 µM] | COc1ccc(NC(=O)N(C)C[C@H]2Oc3ccc(NC(=O)CCC(F)(F)F)cc3CC(=O)N([C@H](C)CO)C[C@H]2C)cc1 |
| -4.1 | -0.1[16.7 µM] | O=C(NC1CCCC1)N[C@H]1C=C[C@@H](CC(=O)N2CCOCC2)O[C@H]1CO |
| 1.7 | -34.5[16.7 µM] | Cc1ccc(S(=O)(=O)N(C)C[C@H]2OCCCC[C@@H](C)Oc3ccc(NS(=O)(=O)c4cccs4)cc3C(=O)N([C@@H](C)CO)C[C@@H]2C)cc1 |
| 0.8 | -11.1[16.7 µM] | CNC(=O)C[C@@H]1CC[C@@H]2[C@H](COc3ccc(NC(=O)C(C)C)cc3C(=O)N2C)O1 |
| 12.7 | 9.6[16.7 µM] | CNC[C@@H]1OCCCC[C@H](C)Oc2ccc(NC(=O)Nc3ccc(OC)cc3)cc2C(=O)N([C@H](C)CO)C[C@@H]1C |
| -2.5 | -3.2[16.7 µM] | C[C@@H]1CN([C@@H](C)CO)C(=O)c2cc(C3=CCCC3)cnc2O[C@H]1CN(C)Cc1cccnc1 |
| 19.8 | -33.3[16.7 µM] | C[C@H](CO)N1C[C@H](C)[C@H](CN(C)CC2CC2)Oc2cc(C#CCN(C)C)ccc2S1(=O)=O |
| 5.7 | 5.1[16.7 µM] | CN(C)CC(=O)N1[C@@H](C#N)[C@@H](c2ccc(C#CC3CCCC3)cc2)[C@@H]1CO |
| 2.4 | -14.2[16.7 µM] | C[C@@H]1CN([C@@H](C)CO)C(=O)c2cc(-c3ccccc3F)cnc2O[C@@H]1CN(C)Cc1cccc(C(=O)O)c1 |
| 3.7 | 14.0[16.7 µM] | C[C@H]1CN([C@@H](C)CO)S(=O)(=O)c2ccc(C3=CCCCC3)cc2O[C@@H]1CN(C)C(=O)C1CCOCC1 |
| 1.2 | -24.2[16.7 µM] | COc1cccc(-c2cnc3c(c2)C(=O)N([C@@H](C)CO)C[C@@H](C)[C@H](CN(C)Cc2ccc(C(=O)O)cc2)O3)c1 |
| -11.1 | -3.6[16.7 µM] | C=CCNC(=O)[C@@H]1[C@H]2C(=O)O[C@H](c3ccccc3)[C@H](c3ccccc3)N2[C@H](c2ccc(O)cc2)[C@@]12C(=O)Nc1ccc(C#CCC(C(=O)OC)C(=O)OC)cc12 |
| 33.7 | 14.2[16.7 µM] | C[C@H]1CCCCO[C@H](CN(C)C(=O)Cc2ccccc2)[C@@H](C)CN([C@@H](C)CO)C(=O)c2cc(NC(=O)Nc3ccccc3)ccc2O1 |
| 27.8 | -7.2[16.7 µM] | C[C@@H]1CN([C@H](C)CO)C(=O)c2cc(-c3cccc(F)c3)cnc2O[C@H]1CN(C)Cc1ccccc1 |
| 4.4 | ? | C[C@@H]1CCCCO[C@@H](CN(C)Cc2ccc3c(c2)OCO3)[C@@H](C)CN([C@@H](C)CO)C(=O)c2cc(NC(=O)Nc3ccc(C(F)(F)F)cc3)ccc2O1 |

Of the compounds above, 2 contain a cyano group.
| UUG fidelity | Env fusion inh | mol |
| --- | --- | --- |
| 2.8 | 9.2[16.7 µM] | COc1ccccc1C#Cc1ccc([C@@H]2[C@@H](C#N)N(C(=O)C3CCC3)[C@@H]2CO)cc1 |
| 5.7 | 5.1[16.7 µM] | CN(C)CC(=O)N1[C@@H](C#N)[C@@H](c2ccc(C#CC3CCCC3)cc2)[C@@H]1CO |

Later entries
| UUG fidelity | Env fusion inh | mol |
| --- | --- | --- |
| -3.2 | 13.6[16.7 µM] | C[C@H](CO)N1C[C@H](C)[C@@H](CN(C)C(=O)Nc2ccc3c(c2)OCO3)OCCCC[C@H](C)Oc2ccc(NC(=O)NC3CCCCC3)cc2C1=O |
| -4.6 | -10.1[16.7 µM] | C[C@H](NC(=O)C[C@H]1CC[C@H](NC(=O)Nc2ccc3c(c2)OCO3)[C@H](CO)O1)c1ccccc1 |
| 1.9 | 1.4[16.7 µM] | C[C@H]1CN([C@@H](C)CO)C(=O)Cc2cc(NC(=O)C3CCCCC3)ccc2O[C@H]1CN(C)CC1CC1 |
| 10.7 | 9.3[16.7 µM] | C[C@@H](NC(=O)C[C@@H]1CC[C@@H]2[C@H](COC[C@H](O)CN2Cc2ccc(C(F)(F)F)cc2)O1)c1ccccc1 |
| 6.9 | -19.8[16.7 µM] | CCCNC(=O)N(C)C[C@H]1Oc2cc(C#CCC(C)C)ccc2S(=O)(=O)N([C@H](C)CO)C[C@@H]1C |
| -2.7 | 20.7[16.7 µM] | COc1cccc(C#Cc2ccc3c(c2)O[C@H](CN(C)C(=O)c2ccccn2)[C@H](C)CN([C@H](C)CO)S3(=O)=O)c1 |
| -15.2 | 0.0[16.7 µM] | C[C@H](CO)N1C[C@H](C)[C@H](CN(C)Cc2ccccc2)Oc2c(NS(=O)(=O)c3cn(C)cn3)cccc2C1=O |
| -0.8 | -0.8[16.7 µM] | Cc1cc(C)cc(NC(=O)Nc2ccc3c(c2)C(=O)N(C)[C@@H]2CC[C@@H](CC(=O)O)O[C@@H]2CO3)c1 |
| 1.7 | -12.7[16.7 µM] | CC(C)C(=O)Nc1ccc2c(c1)C(=O)N(C)[C@H]1CC[C@H](CC(=O)Nc3ccccc3F)O[C@@H]1CO2 |
| -0.2 | -3.9[16.7 µM] | Cn1cnc(S(=O)(=O)N2C[C@@H](O)COC[C@@H]3O[C@@H](CC(=O)N4CCN(c5ccccc5)CC4)CC[C@H]32)c1 |
| -7.4 | -11.3[16.7 µM] | COc1ccc(NC(=O)N(C)C[C@@H]2Oc3ccc(NS(=O)(=O)c4ccc(OC)cc4)cc3CC(=O)N([C@H](C)CO)C[C@H]2C)cc1 |
| 1.8 | -0.6[16.7 µM] | O=C(NCC[C@@H]1CC[C@@H](NC(=O)Nc2cc(F)ccc2F)[C@@H](CO)O1)Nc1ccc(Cl)cc1 |
| -14.0 | 5.3[16.7 µM] | CCC(=O)N[C@@H]1CC[C@H](CCn2cc(C3CC3)nn2)O[C@@H]1CO |
| -3.7 | -21.1[16.7 µM] | COC(=O)C[C@@H]1CC[C@H]2[C@@H](COc3ccc(NC(=O)C4CC4)cc3C(=O)N2C)O1 |
| 0.3 | -18.9[16.7 µM] | C[C@H]1CN([C@@H](C)CO)C(=O)Cc2cc(NC(=O)CCCCCC(=O)Nc3ccccc3N)ccc2O[C@H]1CN(C)S(C)(=O)=O |
| -8.2 | 1.2[16.7 µM] | COc1cccc(C#Cc2ccc([C@@H]3[C@H](C#N)N(C(=O)C4CC4)[C@H]3CO)cc2)c1 |
| 18.9 | -16.6[16.7 µM] | COc1ccccc1-c1cnc2c(c1)C(=O)N([C@@H](C)CO)C[C@@H](C)[C@@H](CN(C)Cc1ccccc1)O2 |
| 6.6 | 13.1[16.7 µM] | COc1cccc(C#Cc2ccc3c(c2)O[C@H](CN(C)C)[C@@H](C)CN([C@H](C)CO)S3(=O)=O)c1 |
| 10.0 | 15.7[16.7 µM] | C[C@@H]1CN([C@@H](C)CO)C(=O)c2cc(-c3ccccc3F)cnc2O[C@@H]1CN(C)C(=O)C1CC1 |
| 24.3 | -14.0[16.7 µM] | N#C[C@H]1N[C@@H](CO)[C@H]1c1ccc(C#CC2CCCC2)cc1 |

Compound profiles, as listed above.
C[C@@H]1CN([C@@H](C)CO)C(=O)c2cc(-c3ccccc3F)cnc2O[C@@H]1CN(C)C(=O)C1CC1 across the screens: UUG fidelity: 10.0; Env fusion inh: 15.7[16.7 µM]
C[C@H]1CN([C@@H](C)CO)C(=O)Cc2cc(NC(=O)CCCCCC(=O)Nc3ccccc3N)ccc2O[C@H]1CN(C)S(C)(=O)=O across the screens: UUG fidelity: 0.3; Env fusion inh: -18.9[16.7 µM]

Following part.
| UUG fidelity | Env fusion inh | mol |
| --- | --- | --- |
| 10.5 | 7.6[16.7 µM] | COc1ccc(S(=O)(=O)N(C)C[C@H]2Oc3ccc(NC(=O)NC(C)C)cc3CC(=O)N([C@@H](C)CO)C[C@H]2C)cc1 |
| 5.0 | 48.9[16.7 µM] | COc1ccc(NC(=O)Nc2ccc3c(c2)CC(=O)N([C@@H](C)CO)C[C@@H](C)[C@@H](CN(C)Cc2ccc(C(F)(F)F)cc2)O3)cc1 |
| 7.5 | -17.4[16.7 µM] | CNC[C@H]1Oc2ccc(NS(C)(=O)=O)cc2CC(=O)N([C@@H](C)CO)C[C@@H]1C |
| -2.0 | 3.9[16.7 µM] | COc1ccccc1CNC(=O)C[C@H]1C=C[C@H](NC(=O)CC2CC2)[C@@H](CO)O1 |
| 12.8 | 17.2[16.7 µM] | C/C=C/c1cnc2c(c1)C(=O)N([C@H](C)CO)C[C@H](C)[C@H](CN(C)S(=O)(=O)c1ccc(C)cc1)O2 |
| 17.0 | 6.9[16.7 µM] | CCCC#Cc1ccc2c(c1)O[C@H](CN(C)C(=O)NC(C)C)[C@H](C)CN([C@@H](C)CO)S2(=O)=O |
| -1.5 | -30.6[16.7 µM] | C[C@@H]1CN([C@@H](C)CO)C(=O)c2cccc(NC(=O)C3CC3)c2O[C@@H]1CN(C)C(=O)Nc1ccc2c(c1)OCO2 |
| 4.2 | -2.0[16.7 µM] | C/C=C/c1ccc2c(c1)O[C@H](CN(C)Cc1ccc(C(=O)O)cc1)[C@H](C)CN([C@@H](C)CO)S2(=O)=O |
| 6.8 | 14.5[16.7 µM] | CNC[C@H]1OCCCC[C@H](C)Oc2ccc(NC(=O)NC3CCCCC3)cc2C(=O)N([C@H](C)CO)C[C@H]1C |
| -2.7 | -32.5[16.7 µM] | COc1ccc(S(=O)(=O)Nc2ccc3c(c2)C(=O)N([C@@H](C)CO)C[C@H](C)[C@H](CN(C)Cc2ccc(Cl)c(Cl)c2)O3)cc1 |
| 27.9 | -11.8[16.7 µM] | COc1ccc(-c2cnc3c(c2)C(=O)N([C@@H](C)CO)C[C@@H](C)[C@H](CN(C)C(=O)Cc2ccccc2)O3)cc1 |
| 6.4 | 37.3[16.7 µM] | C[C@H](CO)N1C[C@H](C)[C@H](CN(C)Cc2ccc(C(=O)Nc3ccccc3N)cc2)Oc2ccc(NC(=O)C3CC3)cc2C1=O |
| 7.1 | 15.0[16.7 µM] | COc1ccc(CNC(=O)C[C@H]2CC[C@@H](NC(=O)c3cccc(F)c3)[C@@H](CO)O2)cc1 |
| 11.5 | -14.6[16.7 µM] | CCCN1C[C@H](C)[C@@H](OC)CN(C)C(=O)c2cc(NC(=O)c3ccccc3F)ccc2OC[C@@H]1C |
| -3.6 | -6.7[16.7 µM] | C[C@H](CO)N1C[C@H](C)[C@@H](CN(C)C(=O)c2cccnc2)Oc2ncc(-c3ccc(F)cc3)cc2C1=O |
| 12.9 | -177.1[16.7 µM] | C[C@@H]1CN([C@H](C)CO)S(=O)(=O)c2ccc(C#C[C@@H](C)O)cc2O[C@@H]1CN(C)C(=O)Nc1ccccc1 |
| 9.2 | -0.4[16.7 µM] | O=C(C[C@H]1C=C[C@H](NS(=O)(=O)c2ccc(F)cc2)[C@@H](CO)O1)NCc1ccncn1 |
| -2.8 | 14.7[16.7 µM] | COc1ccc(-c2cn(CC[C@H]3CC[C@@H](NC(=O)NC(C)C)[C@@H](CO)O3)nn2)cc1 |

Compound activity from PubChem BioAssay.
